VDR inh: Inhibitors of the vitamin D receptor (VDR): qHTS. VDR-SRC2-3 peptide fluorescence polarization, 2 h. AID 504847, 2011. hit rate 0.93% among 400,000. Potency, µM, for the others: max response, negative = inhibition, usual class: inhibitors. Vitamin D3 receptor (Homo sapiens), P11473; active = well fitted inhibition curve with a large enough effect; inconclusive = small, poorly fitted or top-dose-only effect, or another doubt; inactive = no such curve, though single readings can be large or run the other way; note: series mostly up to about 120 µM
Target sequence (P11473 whole entry, looked up): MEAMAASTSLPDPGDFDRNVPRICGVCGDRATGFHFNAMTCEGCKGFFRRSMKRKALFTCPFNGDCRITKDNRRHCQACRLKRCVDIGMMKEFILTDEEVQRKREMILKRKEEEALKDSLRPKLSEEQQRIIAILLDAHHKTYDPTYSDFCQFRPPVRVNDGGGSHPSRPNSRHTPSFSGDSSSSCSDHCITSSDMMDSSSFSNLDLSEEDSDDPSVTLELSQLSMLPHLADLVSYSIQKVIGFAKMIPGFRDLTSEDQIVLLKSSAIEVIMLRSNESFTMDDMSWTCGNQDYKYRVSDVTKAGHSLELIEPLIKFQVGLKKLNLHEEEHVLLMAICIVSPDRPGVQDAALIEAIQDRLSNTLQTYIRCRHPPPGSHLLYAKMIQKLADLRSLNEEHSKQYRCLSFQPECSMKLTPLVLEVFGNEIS
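VDR–SRC2-3 interaction, FP format. Cmpds 23 nl via pintool, brief spin, 2 h ambient incubation.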
Active calls of the source: *; u = inconclusive; & = joins results of further samples. % is set by controls: 0 for no effect and ±100 for the full control effect; potency is the fitted concentration of half-maximal effect.

SMILES	VDR inh
CC(C)N(Cc1nnc(-c2ccc(Cl)cc2)o1)C(=O)C1=COCCO1	11.7%
CC(C)NC(=O)CSc1nnc(-c2ccc3ncccc3c2)n1C	-3.2%
O=C(NCc1ccc(Cl)cc1)C(=O)Nc1cccc(Br)c1	9.6%
CC(=O)c1ccccc1NC(=O)Cn1c(=O)cnc2ccccc21	22.0%
O=C(c1ccc(CNS(=O)(=O)c2ccc(Br)cc2)cc1)N1CCCC1	0.5%
Cc1ccc(Cn2c3ccccc3c3cnn(CC(=O)Nc4cc(Cl)ccc4C)c(=O)c32)cc1	-2.2%
COc1ccc(-c2nc(-n3c(C)c(C(C)=O)c(C(C)=O)c3C)sc2C)cc1OC	0.5%
Cc1cc(O)c(C=O)c2c1C(=O)Oc1c(C)c(O)c3c(c1O2)C(O)OC3=O (centres undefined)	6.31µM*
CN(C)S(=O)(=O)c1ccc(N2CCCC2)c(C(=O)Nc2ccc(Br)cc2F)c1	-15.6%
Cc1cc(Cl)ccc1OCC(=O)OCC(=O)NCCNC(=O)COC(=O)COc1ccc(Cl)cc1C	13.1%
CCOC(=O)N1CCN(C/C(C)=C/c2ccccc2)CC1	11.9%
C#CCOCCOCCOCCNc1nc(N2CCN(C(=O)CCCCCCCCCCNC(=O)Cn3cc(C[C@@H](C)O)nn3)CC2)nc(N2CCN(C(=O)CCCCCCCCCCNC(=O)[C@H](CO)n3cc(CCCSC)nn3)CC2)n1	-21.9%
O=c1cnc2cncnc2n1Cc1ccc(F)cc1	u
COc1cc(/C=C/C(=O)OCC(=O)Nc2c(C)n(C)n(-c3ccccc3)c2=O)ccc1O	-3.3%
O=C(COC(=O)C1CCCN1C(=O)c1cccs1)Nc1ccc2c(c1)OCO2 (centres undefined)	-3.0%
O=C(NCCN1CCCCC1)Nc1ccc(F)cc1F	10.6%
CCC(C)(C)NC(=O)C(c1ccc(F)cc1)N(Cc1ccco1)C(=O)c1cnccn1 (centres undefined)	-7.4%
Cc1ccc(C)c(OCC(=O)NCC(C)C)c1C	4.4%
CCOc1ncccc1C(=O)OCC(=O)NC1CCCCC1	9.3%
CCOC(=O)c1ccccc1NC(=O)N(Cc1ccc(C)cc1)Cc1cccn1-c1nnc(N2CCCC2=O)s1	5.6%
COc1cc(CNCc2cccnc2)ccc1OCC(=O)NC1CCCCC1	-24.5%
CCCNC(=O)C(Cc1ccc(I)cc1)NC(=O)c1ccc(C#N)cc1 (centres undefined)	-11.4%
CC1CCC2C(=O)N(c3ccc(C(=O)NCc4ccccc4)cc3)C(=O)C2C1 (centres undefined)	-1.6%
O=C(O)CCCC(=O)Nc1ccc(N=Nc2ccccc2)cc1	-15.3%
COc1ccc(C(=O)Oc2ccc(N(C)S(=O)(=O)c3ccccc3)cc2)cc1[N+](=O)[O-]	-1.4%
CCCSc1nc2c(cnn2-c2ccccc2)c(=O)n1N	-7.0%
CCOC(=O)c1cnc2c(Cl)cc(Cl)cc2c1Nc1cc(C(=O)O)ccc1C	-21.4%
Cc1cn(CC(C)C)c(=O)n(-c2ccccc2)c1=O	3.9%
c1ccc(CCN2CN=C(Nc3nc4ccccc4s3)NC2)cc1	5.2%
COc1cc(Cl)c(C)cc1NS(=O)(=O)c1c(C)nc2sccn2c1=O	9.1%

Ordered by molar mass (ascending): 4 of the compounds above
SMILES	VDR inh
Cc1cn(CC(C)C)c(=O)n(-c2ccccc2)c1=O	3.9%
c1ccc(CCN2CN=C(Nc3nc4ccccc4s3)NC2)cc1	5.2%
O=C(COC(=O)C1CCCN1C(=O)c1cccs1)Nc1ccc2c(c1)OCO2 (centres undefined)	-3.0%
CCOC(=O)c1ccccc1NC(=O)N(Cc1ccc(C)cc1)Cc1cccn1-c1nnc(N2CCCC2=O)s1	5.6%

Additional entries follow:
SMILES	VDR inh
Cc1ccc(Oc2nc3ccccc3n3c(C)nnc23)cc1	-17.1%
O=C1N/C(=C/c2ccc(Br)cc2)C(O)=C1C=NCc1ccccc1	8.0%
O=C(c1cc2nc(-c3cccs3)cc(C(F)(F)Cl)n2n1)N1CCCc2ccccc21	12.2%
CC(=O)c1ccc(N2CCN(C(=O)c3n[nH]c4ccccc34)CC2)cc1	3.8%
CC(=O)c1ccc(C(=O)N2CCCC(C(=O)c3cc(F)ccc3F)C2)s1 (centres undefined)	7.8%
C[C@@H](Cc1ccccc1)Nc1ncnc2c1ncn2[C@@H]1O[C@H](CO)[C@@H](O)[C@H]1O	0.7%
COc1cc(C(=O)NCc2nnc(SCC(=O)N3CCC(C)CC3)o2)cc(OC)c1OC	-17.1%
COc1cc(OC)c(NC(=O)CSc2cc(=O)n(C)c3ccc(Cl)cc23)cc1Cl	-22.0%
Cc1csc(=O)n1CC(=O)OCC(=O)NCc1ccccc1	-3.8%
Cc1ccc(NS(=O)(=O)c2ccc(C(=O)OCC(=O)N3CCCCC3)cc2)cc1	0.9%

5 entries from above in a different format:
Molecule,VDR inh
C[C@@H](Cc1ccccc1)Nc1ncnc2c1ncn2[C@@H]1O[C@H](CO)[C@@H](O)[C@H]1O,0.7%
COc1cc(C(=O)NCc2nnc(SCC(=O)N3CCC(C)CC3)o2)cc(OC)c1OC,-17.1%
COc1cc(OC)c(NC(=O)CSc2cc(=O)n(C)c3ccc(Cl)cc23)cc1Cl,-22.0%
Cc1csc(=O)n1CC(=O)OCC(=O)NCc1ccccc1,-3.8%
Cc1ccc(NS(=O)(=O)c2ccc(C(=O)OCC(=O)N3CCCCC3)cc2)cc1,0.9%

(continued)
SMILES	VDR inh
COc1ccc(N2CCN(CC(O)COC(c3ccc(F)cc3)c3ccc(F)cc3)CC2)cc1 (centres undefined)	-1.7%
C[N+](C)(CCOc1ccccc1)Cc1ccccc1	-25.2%
O=C(NCC1CCN(Cc2ccc(F)cc2)CC1)Nc1cc(F)ccc1F	5.0%
CN(Cc1ccc(-n2cccn2)cc1)Cc1nc(-c2cnccn2)no1	9.2%
COc1ccc(OC)c(S(=O)(=O)NCCOC23CC4CC(CC(C4)C2)C3)c1	1.0%
COc1ccc(-n2c(-c3ccc(C)cc3)cc3c2CC(C)(C)CC3=O)c(OC)c1	-10.0%
COc1ccc(N(CC(=O)Nc2cccc3ccccc23)S(C)(=O)=O)c(OC)c1	u
CN1CCN(S(=O)(=O)c2ccc(C(=O)Nc3ccccc3)cc2)CC1	-7.9%
CCOCCCNC(=O)c1ccc(OC)cc1	-7.3%
O=C(O)c1ccc(CSc2nnc(-c3ccncc3)n2CC2CCCO2)cc1 (centres undefined)	5.0%

Some of the entries above, set out differently.
> COc1cc(C(=O)NCc2nnc(SCC(=O)N3CCC(C)CC3)o2)cc(OC)c1OC
  VDR inh = -17.1%
> COc1cc(OC)c(NC(=O)CSc2cc(=O)n(C)c3ccc(Cl)cc23)cc1Cl
  VDR inh = -22.0%

VDR inh: hit marks shown above
SMILES	VDR inh
Cc1cc(O)c(C=O)c2c1C(=O)Oc1c(C)c(O)c3c(c1O2)C(O)OC3=O (centres undefined)	6.31µM*

The listing continues:
SMILES	VDR inh
Cc1c(NC(=O)C2CC(c3ccc(F)cc3)=NO2)c(=O)n(-c2ccccc2)n1C (centres undefined)	5.3%
O=C(CNC(=O)c1ccc(Br)o1)NNC(=O)c1ccccc1O	-11.7%
COCCCn1c(SCC(=O)NC2CCCC2)nnc1-c1ccncc1	u
COC(=O)CSc1cc(C(F)(F)F)nc(-c2ccccn2)n1	6.7%
CCc1cc(=O)oc2cc(OCC(=O)NCCCn3ccnc3)ccc12	-15.7%
O=S(Cc1ccc(Br)cc1)Cc1nnc(SCc2ccc(Cl)cc2)n1-c1ccccc1 (centres undefined)	-14.0%
CC(=O)NC12CC3CC(C1)CC(C(=O)OCC(=O)c1cc(C)n(C)c1C)(C3)C2	3.4%
NC(=O)NC(CC(=O)OCC(=O)NC(=O)NCc1ccco1)c1ccc(Cl)cc1 (centres undefined)	-9.1%
CC12CCC(C(=O)N(c3ccccc3Cl)C1=O)C2(C)C (centres undefined)	0.3%
CN(CC(=O)Nc1ccc(Cl)cc1F)C1=NS(=O)(=O)c2ccccc21	-8.0%
Cc1ccc(SC(c2ccc(C)cc2)C(Cn2cncn2)C(=O)c2ccccc2)cc1 (centres undefined)	3.8%
Cc1cccc(C2NS(=O)(=O)N=C2N)c1 (centres undefined)	4.3%
Cc1cccc(NC(=O)Cn2c(/C=C/c3ccccc3)nc3ccccc32)c1	-6.8%
COc1ccc(OC)c(CNC(=O)CN2N=C(c3ccc(Cl)cc3)CCC2=O)c1	10.5%
NC1=C(Br)C(=O)c2ncccc2C1=O	u
CCCCCC1CC(CC(=O)Nc2ccc([N+](=O)[O-])cc2)C(=O)O1 (centres undefined)	-15.5%
Cc1cc(C(=O)CN2C(=O)NC(C)(c3cccc(Br)c3)C2=O)c(C)n1Cc1ccco1 (centres undefined)	8.9%
Cc1ccc(/C(=N\S(=O)(=O)c2ccc(Br)cc2)Nc2ccccc2C)cc1	-16.1%
CCCCON1C(=O)c2cccc3cccc(c23)C1=O	-4.9%
Cc1c(/C=N\NC(=O)C2COc3ccc(C(C)(C)C)cc3O2)c2ccccc2n1C (centres undefined)	-16.6%
COc1ccc2cc(CN(C(=O)Nc3ccccc3)C3CCCC3)c(=O)[nH]c2c1	0.1%
S=C(Nc1ccccn1)c1ccccn1	-3.2%
OC(c1ccccc1)(c1ccc(F)cc1)C(c1ccccc1)N1CCOCC1 (centres undefined)	-6.9%
O=C1N(Cc2ccc(F)cc2Cl)c2ccccc2C12OCCCO2	10.8%
CCOC(=O)c1cc(CC)sc1NC(=O)c1ccc2c(c1)OCCO2	-18.4%
CCOC(=O)C1CCN(c2ncnc3c2nc2n3CCCCC2)CC1	4.2%
O=C(C1=C[C@H](c2coc3ccccc3c2=O)C[C@H](OCc2ccc(CO)cc2)O1)N1CCN(Cc2ccc3c(c2)OCO3)CC1	-21.6%
O=C(Nc1ccc(Cl)c(C(F)(F)F)c1)c1ccc2c(c1)CCN2S(=O)(=O)c1ccccc1	5.4%
O=C(NCc1cccc(Cl)c1)c1cccnc1	1.9%
Cc1cc(C)c(C(=O)OCC(=O)Nc2cccc(S(=O)(=O)N3CCCCC3)c2)c(C)c1	-8.3%
CCCS(=O)(=O)N1CCN(Cc2c[nH]c3ccccc23)CC1	1.1%
Cc1ccc(O)c(NC(=O)CCS(=O)(=O)c2nc(-c3cccs3)cc(C(F)(F)F)n2)c1	20µM*
CCc1nnc(NC(=O)CCC(=O)N2CCN(S(=O)(=O)c3cc(Cl)ccc3OC)CC2)s1	-6.4%
O=C(CCCN1CCOC(c2ccccc2)C1)c1ccc(F)cc1 (centres undefined)	-12.4%
COc1ccc(NC(=O)COc2coc(CN3c4ccccc4CC3C)cc2=O)cc1 (centres undefined)	12.3%
COC(=O)c1ccc2c(=O)n(Cc3ccc(C(=O)NCCCN4CCC(C)CC4)cc3)c(=S)[nH]c2c1	0.0%
Cc1ccc(Cn2ncc3c(N4CCN(CCc5ccccc5)CC4)ncnc32)cc1	-11.7%
COc1ccc2c(c1)CCc1c(C(=O)Nc3c(C)nn(Cc4ccccc4)c3C)noc1-2	1.3%&-7.5%
COc1ccc(CN2CCNC(=O)C2CC(=O)NCCCn2nnc3ccccc32)cc1C (centres undefined)	8.8%
CC(C)CC(=O)NC(Nc1ccc([N+](=O)[O-])cc1)C(Cl)(Cl)Cl (centres undefined)	-0.1%
O=S(=O)(Nc1ccc(-c2cn3ccsc3n2)cc1)c1ccc2c(c1)OCCO2	-1.4%
COCC(C)NCC(=O)NC(C)CCc1ccccc1 (centres undefined)	-13.1%
COc1ccc(NCC(=O)N/N=C2\CCCC(C)C2)cc1 (centres undefined)	17.4%
Cc1ccc(NC(=O)Cn2cc(C(=O)c3ccco3)c3ccccc32)cc1C	-8.4%
CC1CN(C(=O)c2ccc(Cl)c(S(=O)(=O)NCc3ccco3)c2)CC(C)O1 (centres undefined)	7.1%
COc1ccc(C)cc1NC(=O)c1cc(S(=O)(=O)N2CCC(C)CC2)cn1C	-1.5%
CCC(=O)Nc1cccc(NC(=O)CN2CCN(c3ccccc3OC)CC2)c1	19.2%
COc1cccc(CN(C)C(=O)CCN(c2ccccc2)S(=O)(=O)c2ccc(C)cc2)c1OC	-17.9%
COc1ccc2cc(-c3nnc(Nc4ccccc4)s3)c(=O)oc2c1	3.6%
O=C(OCC(=O)N1CCOCC1)c1cccc(S(=O)(=O)N2CCCc3ccccc32)c1	-11.0%

More records.
SMILES	VDR inh
O=C(CCc1nnc2ccc(N3CCOCC3)nn12)Nc1ccc(F)cc1F	-11.9%
CC(=O)Nc1ncnc2c1c(-c1ccc(Cl)cc1)nn2C(C)(C)C	-31.0%
COc1ccc(OC)c(S(=O)(=O)NCC(c2ccco2)N2CCc3ccccc3C2)c1 (centres undefined)	-25.4%
COc1ccc(CCN2C(=O)c3[nH]nc(-c4ccccc4O)c3C2c2ccccc2)cc1OC (centres undefined)	-7.6%
CN[C@H]1CCc2cc(OC)c(OC)c(OC)c2-c2ccc(OC)c(=O)cc21	-17.5%
O=C(NC1CCCC1)c1ccc(CSc2nc3cccnc3n2Cc2ccccc2F)cc1	5.1%
CCc1nn2c(=O)cc(COC(=O)c3cccc(NC(=O)COc4ccccc4F)c3)nc2s1	9.5%
O=C1C(=Cc2ccco2)C(=O)c2ccccc21	-16.0%
CCOC(=O)c1cnc2nc(C)[nH]n2c1=O	-1.3%
CCCn1c(N)c(C(=O)CSc2ncnc3sccc23)c(=O)n(C)c1=O	-3.5%
N#CC12C(=O)NC(=O)C1(C#N)C21CCCC1 (centres undefined)	-2.7%
O=C(Nc1ccc(C(=O)O)cc1)/C(=C\c1ccc([N+](=O)[O-])cc1)NC(=O)c1ccc(Br)cc1	14.8%
COC(=O)c1c(NC(=O)COc2ccc(C(C)C)cc2)sc2c1CCCC2	-6.9%
O=C(NCCCNC(=O)c1ccccn1)c1cccc(F)c1	-5.7%
CCOc1ccc(C2C=C(c3cccc(OC)c3)Nc3nnnn32)cc1 (centres undefined)	-21.0%
CCCn1c(N)c(N(CCOC)C(=O)CSCC(=O)Nc2ccc(OC)cc2)c(=O)[nH]c1=O	-1.6%
CCOC(=O)c1ccc(NC(=O)N2CCc3ccccc32)cc1	-1.7%
CCS(=O)(=O)c1ncc(Cl)c(C(=O)Nc2ccc(S(=O)(=O)N3CCC(C)CC3)cc2)n1	14.1µM*
CCn1nnnc1SCC(=O)NCc1cccs1	-9.3%

The list is partial; the hit share may differ from the screen's.
